Assay outcomes from PubChem.
Mtb H37Rv: Mycobacterium tuberculosis H37Rv growth inhibition, cell based, confirmatory dose response (AID 1949); most inactive calls were filed without a number and no value below 0 was filed; one-dose inhibition, % at 10 µg/mL; IC50 in µg/mL for titrated hits; actives 1.6% (n = 100,000);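 active means confirmed in a dose series; inconclusive means about 50% or more but not retested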;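 further: bacteria grown 7 days with compound before Alamar blue readout; 0% = untreated bacteria and 100% = reference antibiotic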
Active calls of the source: *; i = inactive; u = inconclusive. Some of the compounds tested; count on the stated rates, not on these rows.

A first look (six entries):
SMILES | Mtb H37Rv
CCc1ccc(S(=O)(=O)N2CCN(C(=O)Nc3ccccc3)CC2)cc1 | 4.2%
CCOc1ccc(NC(=S)c2ccc3ccccc3n2)cc1 | i
Cc1ccc(NC(=S)Nc2ccccc2C(F)(F)F)cc1 | i
COc1ccc(S(=O)(=O)N2CCN(C(=O)Nc3ccccc3)CC2)cc1OC | i
Cc1ccc(CNC(=O)C(=O)Nc2ccccc2)cc1 | i
Cc1cc(Cl)ccc1OCC(=O)Nc1ccccc1N1CCN(S(C)(=O)=O)CC1 | 5.8%

Main list, from the start:
SMILES | Mtb H37Rv
CCc1ccc(S(=O)(=O)N2CCN(C(=O)Nc3ccccc3)CC2)cc1 | 4.2%
CCOc1ccc(NC(=S)c2ccc3ccccc3n2)cc1 | i
Cc1ccc(NC(=S)Nc2ccccc2C(F)(F)F)cc1 | i
COc1ccc(S(=O)(=O)N2CCN(C(=O)Nc3ccccc3)CC2)cc1OC | i
Cc1ccc(CNC(=O)C(=O)Nc2ccccc2)cc1 | i
Cc1cc(Cl)ccc1OCC(=O)Nc1ccccc1N1CCN(S(C)(=O)=O)CC1 | 5.8%
COc1ccc(S(=O)(=O)N(CC(=O)NCc2ccccn2)c2ccccc2OC)cc1 | i
COC(=O)c1c(-c2ccc(C)cc2)csc1NC(=O)c1cccs1 | i
COc1ccc(C)cc1NS(=O)(=O)c1ccc(NC(=O)C(OC)c2ccccc2)cc1 (stereo not drawn) | i
COc1ccc(-c2csc(Nc3ccc(S(N)(=O)=O)cc3)n2)cc1C | 46.6%
O=C(Nc1cccc(Br)c1)C1CCN(C(=O)c2ccc([N+](=O)[O-])cc2)CC1 | 7.2%
Cc1nc2c(sc3nc4c(cc32)COC(C)(C)C4)c(=O)n1CCc1ccccc1 | 5.7%
COc1ccc(-c2csc(NC(=O)c3cccnc3)c2C#N)cc1OC | i
Cc1ccc(Cc2cncc(O)c2)cc1S(=O)(=O)O | i
O=C1c2ccccc2C(=O)N1Cc1ccccn1 | i
CC(C)CCC(C(=O)O)C(C)CC(=O)NC1CCCCC1 (stereo not drawn) | i
CS(=O)(=O)N(Cc1ccc(Cl)cc1)c1ccc(C(=O)Nc2ccc3c(c2)OCCO3)cc1 | 0.9%
N#Cc1sc2nc(C3CC3)cc(-c3ccc(Cl)cc3)c2c1N | 4.1%
CN(C(=O)CSc1nnnn1Cc1ccccc1)c1ccccc1 | 0.2%
O=C(Nc1ccccc1C(=O)NC1CCCCC1)c1ccc(CN2CCOCC2)cc1 | 0.1%
O=S(=O)(Cc1ccccc1)NC1CCCC1 | i
Cc1ccc(C(=O)c2oc3ccccc3c2NC(=O)c2ccccc2[N+](=O)[O-])cc1F | i
CN1CCCCC1(C)C#CC(O)(c1ccccc1)c1ccccc1 (stereo not drawn) | i
O=C(CCc1ccccc1)Nc1nnc(SCC(=O)c2ccc(Br)cc2)s1 | i

Looked up one by one from above, five records:
SMILES | Mtb H37Rv
COc1ccc(-c2csc(NC(=O)c3cccnc3)c2C#N)cc1OC | i
N#Cc1sc2nc(C3CC3)cc(-c3ccc(Cl)cc3)c2c1N | 4.1%
CS(=O)(=O)N(Cc1ccc(Cl)cc1)c1ccc(C(=O)Nc2ccc3c(c2)OCCO3)cc1 | 0.9%
O=C1c2ccccc2C(=O)N1Cc1ccccn1 | i
CN1CCCCC1(C)C#CC(O)(c1ccccc1)c1ccccc1 (stereo not drawn) | i

Following part
SMILES | Mtb H37Rv
COc1ccc(CNC(=O)C2CCN(C(=O)c3cccc(Cl)c3)CC2)cc1 | i
O=[N+]([O-])c1cccc(S(=O)(=O)Nc2ccccc2C(F)(F)F)c1 | i
Cc1c(Cl)cccc1NC(=O)CCC1CCCC1 | i
CC(C)OCC(O)CN1CCc2ccccc2C1 (stereo not drawn) | i
CC(=O)c1cc(Cl)ccc1OC(=O)c1ccccc1 | 5.2%
Cc1ccc(NC(=O)CSc2nnc(-c3ccccc3C)n2C)cc1C | 3.6%
O=C(CN1C(=O)c2ccccc2C1=O)Nc1ccc(Sc2ccc([N+](=O)[O-])cc2)cc1 | i
COCCCNC(=S)Nc1ccc(Cl)c(C(F)(F)F)c1 | i
Cc1cccc2sc(NC(=O)c3ccccc3Cl)nc12 | 4.5%
CC(C)(C)NC(=O)c1ccc(COCC(F)(F)F)o1 | 0.1%
CC(C)c1ccc(C2=NN(c3ccccc3)C(=O)CC2)cc1 | 6.4%
COc1ccc(CCNC(=S)NC(C)C2CCCO2)cc1OC (stereo not drawn) | i
O=C(c1cccs1)c1cn(Cc2ccccc2F)c2ccccc12 | i
CCCNC(=O)c1ccc(I)cc1 | i
COc1cccc(N(CC(=O)Nc2ccccc2C(=O)N2CCCC2)S(C)(=O)=O)c1 | 2.6%
O=C(NCCN1CCOCC1)c1cc(-c2ccccc2)on1 | i
Cc1onc(-c2c(Cl)cccc2Cl)c1C(=O)N1CCN(c2ccc(F)cc2)CC1 | i
COC(=O)c1ccccc1NC(=O)c1ccc(OC)c(Cl)c1 | i
CC(C)CNCC1COc2ccccc2O1 (stereo not drawn) | i
CCCSc1nc2c(c(=O)[nH]1)C(c1cccnc1)C1=C(CC(C)(C)CC1=O)N2 (stereo not drawn) | i
CCOc1c(OC)ccc2c3c(c(=O)oc12)CCCC3 | u
COc1ccc(CN2C(=O)c3oc4ccc(Br)cc4c(=O)c3C2c2cccc([N+](=O)[O-])c2)cc1 (stereo not drawn) | i
CCc1ccc(OCc2cccc(C(=O)Nc3ccc(C(N)=O)cc3)c2)cc1 | i
O=C(O)C1CCN(S(=O)(=O)/C=C/c2ccccc2)CC1 | i
CCOC(=O)CSC1=C(C#N)C(c2ccc(Br)cc2)CC(=O)N1 (stereo not drawn) | i
N#Cc1nc(-c2ccccc2F)oc1N1CCCCCC1 | i
Cc1c(C(=O)NC(=S)NCC(C)C)oc2ccccc12 | i
COc1ccc(Cl)cc1NC(=O)CSc1ccc(Br)cc1 | i
CCOC(=O)c1cnc2c(C(F)(F)F)cccc2c1N1CCOCC1 | i
O=C(CC12CC3CC(CC(C3)C1)C2)Nc1cccc(NC(=O)c2cccs2)c1 | 15.5%
CC1CCN(C2CCN(Cc3cccc([N+](=O)[O-])c3)CC2)CC1 | 1.0%
Cc1ccc(S(=O)(=O)N(CC(=O)Nc2ccc3c(c2)OCCO3)c2ccccc2F)cc1 | i
Cc1ccc(C(=O)NC(=S)Nc2cccnc2)c(C)c1 | 3.7%
O=C(C1CC2CCC1C2)N1CCN(c2cccc(C(F)(F)F)c2)CC1 (stereo not drawn) | i
COc1cccc(NC(=O)CSc2nc3ccccc3c(=O)n2Cc2ccccc2)c1 | i
CC1(C)Cc2c(C#N)c(SCC(=O)c3ccccc3)nc(N3CCOCC3)c2CO1 | 12.9%
N/C(CC(=O)Nc1cccc(Cl)c1)=N\O | i
O=C(Nc1ccccc1F)c1ccncc1 | i
Oc1ccccc1C(=S)N1CCN(c2ccc(F)cc2)CC1 | i
COc1ccccc1NC(=S)N1CCN(C2CCCCC2)CC1 | 0.2%
CCC(C)(C)c1ccc(OCCOCCN2CCN(C)CC2)c(Cl)c1 | 3.4%
O=C(NCC1CCCO1)c1ccc(Br)o1 (stereo not drawn) | i
Cc1oc2cc3oc(=O)c4c(c3cc2c1-c1ccccc1)CCCC4 | i
CC(=O)Nc1nc(N2C(=O)c3ccccc3C2=O)n(-c2ccccc2)n1 | i
O=C(c1ccccc1F)N(Cc1ccccc1)c1ccccn1 | i
O=C(c1ccc2c(c1)C1C3CCC(C3)C1C(c1ccccc1)N2)N1CCN(c2ccccc2F)CC1 (stereo not drawn) | 17.5%
CCCCOc1ccc(S(N)(=O)=O)cc1 | 1.2%
COc1ccc(NC(=O)c2ccc(OC(C)=O)cc2)cc1OC | i
CC1=C(C)CC(C(=O)Nc2ccccc2F)C(C(=O)O)C1 (stereo not drawn) | i
COc1ccccc1C(=O)NCc1cccnc1 | i
CC(C)CCNC(=O)C(=O)NC(C)C | i
CCOc1cc(C=O)cc(Cl)c1OCc1ccc(Cl)cc1 | 28.3%
CCOC(=O)CNC(=O)C1Cc2ccccc2CN1S(=O)(=O)c1cccs1 (stereo not drawn) | i
O=C(O)CCN1C(=O)c2ccc(NC(=O)Cc3ccc(Cl)cc3)cc2C1=O | i
CC12CCC(C(=O)Nc3ccccc3C(F)(F)F)(CC1=O)C2(C)C (stereo not drawn) | 0.9%
COc1ccc(S(=O)(=O)NCCSCc2ccccc2C)cc1Br | i
CCOC(=O)c1ccc(NC(=O)C(=O)Nc2ccccn2)cc1 | i
COc1cc(C=O)ccc1OC(=O)c1cn(-c2ccccc2)nc1-c1ccncc1 | i
COc1ccc(-c2ccc(C(=S)N3CCN(c4cccc(Cl)c4)CC3)o2)cc1 | 25.1%
COC(=O)Cc1c(C)c2c(OCC(=O)c3ccc(N4CCCC4)cc3)cc(C)cc2oc1=O | i
Going on with the list.
SMILES | Mtb H37Rv
COc1ccc(S(=O)(=O)NNC(=S)NCc2ccc(F)cc2)c(OC)c1 | i
CC1CN(C(=O)c2cccc(COc3ccccc3Cl)c2)CC(C)O1 (stereo not drawn) | i
Cc1ccccc1NC(=O)c1ccc(NC(=O)C2CC(=O)OC23CCCCC3)cc1 (stereo not drawn) | i
Cc1ccnc(Nc2nc(C)c3cccc(C)c3n2)n1 | 4.1%
O=C(Nc1nc2ccc(S(=O)(=O)N3CCCCC3)cc2s1)C1CCCO1 (stereo not drawn) | i
CCOC(=O)c1ccc(NC(=O)N2CCN(c3cccc(C(F)(F)F)c3)CC2)cc1 | i
CCc1cccc(CC)c1NC(=O)CN(c1ccccc1Br)S(C)(=O)=O | 4.8%
COc1ccccc1OCC(O)Cn1cnc2cc(C)c(C)cc21 (stereo not drawn) | 1.5%
CCN(CC)CCNC(=O)c1ccc(OC)cc1 | i
COc1cc(NC(=O)c2nn(C)cc2[N+](=O)[O-])cc(OC)c1OC | i
Cn1c(CN2CCOCC2)nnc1SCC(=O)Nc1ccc2c(c1)OCO2 | i
COc1cccc(OC)c1C(=O)Nc1cccc2c1CCCC2 | i
CCc1ccc(NC(=O)CN(c2ccccc2C)S(C)(=O)=O)cc1 | i
Cc1noc(C)c1C(=O)Nc1cccnc1 | i
Cc1cc(Br)cc(C)c1OCCOCCN(C)Cc1ccccc1 | i
COc1ccc(S(=O)(=O)N2CCCC(C(=O)O)C2)cc1 (stereo not drawn) | i
Cc1c(C(=O)NC(=S)Nc2ccc(Oc3ccc(Cl)cc3)cc2)cccc1[N+](=O)[O-] | 1.49µg/mL*
Cc1cc(F)ccc1NC(=O)Cc1cccs1 | i
Nc1cc(=O)nc(SCCC(=O)O)n1-c1ccccc1 | 0.2%
CCCC(=O)Nc1ccc(Cl)cc1C(=O)c1ccccc1 | i
COC(=O)c1cc(C)sc1NC(=S)NNC(=O)C(C)Oc1cc(C)c(Cl)c(C)c1 (stereo not drawn) | i
COCCN1C(=O)C(O)=C(C(=O)c2ccc(C)o2)C1c1ccc(Cl)c(Cl)c1 (stereo not drawn) | i
COc1ccc(S(=O)(=O)NCCC(C)C)cc1Br | 3.0%
CC(=O)Nc1ccc(C(=O)OCc2ccc([N+](=O)[O-])cc2)cc1 | 1.9%

6 entries from above, set out differently:
smiles	Mtb H37Rv
CCCC(=O)Nc1ccc(Cl)cc1C(=O)c1ccccc1	i
COC(=O)c1cc(C)sc1NC(=S)NNC(=O)C(C)Oc1cc(C)c(Cl)c(C)c1 (stereo not drawn)	i
CCc1ccc(NC(=O)CN(c2ccccc2C)S(C)(=O)=O)cc1	i
Cc1cc(Br)cc(C)c1OCCOCCN(C)Cc1ccccc1	i
Nc1cc(=O)nc(SCCC(=O)O)n1-c1ccccc1	0.2%
COc1ccc(S(=O)(=O)NCCC(C)C)cc1Br	3.0%

(next part)
SMILES | Mtb H37Rv
C=C(C)COc1ccc2c(c1)oc(=O)c1ccccc12 | 5.7%
CC(=O)Nc1nnc(SCC(=O)Nc2cc(Cl)ccc2C)s1 | i
FC(F)(F)c1cccc(NC(=S)N2CCCCCC2)c1 | i
CCOC(=O)CCc1c(C)c2ccc(OCc3ccccc3Cl)cc2oc1=O | i
O=C(CN(Cc1ccc(Cl)cc1Cl)S(=O)(=O)c1ccccc1)Nc1ccc(F)cc1 | 3.0%
OC(CN1CCCCC1)Cn1ccc2ccccc21 (stereo not drawn) | i
COc1ccc(C(=O)Oc2ccc(C(=S)N3CCOCC3)cc2Cl)cc1OC | i
CC(C)Oc1ccc(C(=O)Nc2ccc(I)cc2Cl)cc1 | 5.7%
COc1ccc(N2C(=O)NC(C(F)(F)F)(C(F)(F)F)C3=C2CC(C)(C)CC3=O)cc1 | i
Cc1ccc(CNC(=O)C2CC(=O)OC23CCCC3)c(C)c1 (stereo not drawn) | i
NC(=O)C1CCN(C(=O)c2ccc(CSc3ccc(Cl)cc3)cc2)CC1 | i
CS(=O)(=O)N(CC(=O)NC1CC1)c1ccc(Cl)c(Cl)c1 | i
Cc1ccc(CNC(=O)C2CCN(C(=O)c3ccccc3C)CC2)cc1 | i
Cc1c(C(=O)NC(=S)Nc2ccc(Cl)c(C(=O)O)c2)cccc1[N+](=O)[O-] | i
CC(=O)N(Cc1cc2cccc(C)c2[nH]c1=O)c1ccc(C)cc1C | i
CS(=O)(=O)Nc1ccc(C(=O)Nc2cc(C(F)(F)F)ccc2Cl)cc1 | 5.7%
Cc1ccc(NC(CC(=O)c2ccc([N+](=O)[O-])cc2)c2ccccc2)cc1 (stereo not drawn) | 49.2µg/mL*
COc1ccc(C(=O)Nc2ccc(C3CC3(Cl)Cl)cc2)cc1 (stereo not drawn) | i
c1ccc(COc2ccc(CNn3cnnc3)cc2)cc1 | i
O=S(=O)(c1cccc(S(=O)(=O)N2CCCC2)c1)N1CCCC1 | i
COC(=O)c1ccc(COc2c(-c3ccco3)oc3ccccc3c2=O)cc1 | i
C=CCn1c(SCc2ccc(C(=O)OC)cc2)nnc1-c1sc(N)nc1C | i
CC(=O)Oc1ccc(N(C(C)=O)S(=O)(=O)c2ccc(C)cc2C)cc1 | i
O=C(Nc1nnc(SCc2ccccc2Cl)s1)c1ccccc1Br | i
COc1ccc(CCNC(=O)C2CCN(S(=O)(=O)c3ccc(OC)cc3)CC2)cc1 | i
COC(=O)c1ccc(COc2ccccc2OC)cc1 | 7.5%
